HPGD block: HPGD (human) dehydrogenase inhibition; purified HPGD, NADH fluorescence kinetic, PGE2 substrate; actives 4.3% (n = 150,000); Potency, µM, without a hit: at the highest dose activity change, negative = inhibition, usual class: inhibitors; P15428; active = well fitted inhibition curve with a large enough effect (not every such curve was filed as active); inconclusive = small, poorly fitted or top-dose-only effect, or another doubt; inactive = no such curve, though single readings can be large or run the other way;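 also: top concentration of the series not given in the record; plate controls included wells without enzyme; inactives centre near -10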
Target sequence (P15428 whole entry, looked up): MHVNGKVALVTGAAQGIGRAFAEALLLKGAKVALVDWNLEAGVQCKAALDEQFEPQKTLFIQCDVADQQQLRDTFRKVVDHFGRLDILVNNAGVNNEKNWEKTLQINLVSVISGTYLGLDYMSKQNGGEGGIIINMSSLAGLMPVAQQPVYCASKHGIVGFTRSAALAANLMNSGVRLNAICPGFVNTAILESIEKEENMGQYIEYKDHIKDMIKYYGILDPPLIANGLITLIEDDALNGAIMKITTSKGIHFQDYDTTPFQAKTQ
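NADH formation kinetics: reaction with 30 uM PGE2 and 1 mM NAD+ (final), 20 nM enzyme, Tris-HCl pH 8 with Tween 20, after 15 min compound preincubation at room temperature. Fluorescence change, last versus first of five reads.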
Active calls of the source: *; ? = inconclusive. % is scaled to controls: 0 for no effect and ±100 for the full control effect; potency is read from the fitted curve at half-maximal effect. This is a subset; rates above refer to the full screens.

SMILES	HPGD block
C=CC(C1=CC(=O)C=CC1=O)c1ccccc1 (stereo unspecified)	-9.2%
COc1ccc(OC)c(C2=NOC(C(=O)NCc3ccccn3)C2)c1 (stereo unspecified)	8.8%
O=C(CSc1nnc2ccccn12)NCc1cccs1	?
CS(=O)(=O)N(CC(O)CON=C1c2ccccc2-c2ccccc21)c1ccc(F)cc1 (stereo unspecified)	-10.4%
CCOC(=O)c1c(NC(=O)COC)sc(C)c1C	-20.0%
COc1cc(/C=N/NC(=O)c2ccoc2C)ccc1O	-19.3%
CC12CN3CC(C)(CN(C1)C3c1ccc(Cl)cc1Cl)C2=O (stereo unspecified)	-1.4%
O=C(/C=C/c1c(Cl)cccc1Cl)NCc1ccco1	?
COc1ccc(C)cc1NC(=O)c1ccoc1C	-9.3%
O=C(COc1ncnc2sccc12)NC1CCCc2ccccc21 (stereo unspecified)	-8.4%
O=C(c1cc2nc(-c3ccc(F)cc3)cc(C(F)(F)F)n2n1)N1CCCC1	3.55µM*
Cc1ccc(NC(=O)COC(=O)C(CC(C)C)N2C(=O)C3CC=CCC3C2=O)c(C)c1 (stereo unspecified)	-8.0%
Cc1nn(-c2ccc(Cl)cc2)c2sc(C(=O)c3c(N)n(C)c(=O)n(C)c3=O)cc12	?
C=CCO/N=C(\C)c1c(O)c(C)c(-c2ccccc2)n(-c2ccccc2)c1=O	-12.3%
Cc1ccc2c(c1)NC(=O)C(N1CCOCC1)(C(F)(F)F)O2 (stereo unspecified)	-1.6%
COc1ccc(CCNC(=O)CCSc2nc(-c3ccco3)cc(C(F)(F)F)n2)cc1OC	-21.9%
CCc1cccc(NC(=O)CN2C(=O)NC3(CCCCCCC3)C2=O)c1	-8.6%
O=C(O)C1CC(=O)N(c2ccc(OCc3ccccc3Cl)cc2)C1 (stereo unspecified)	-11.2%
Cc1cccn2c(=O)c3cc(C(=O)NCc4ccco4)c(=N)n(CCOCCO)c3nc12	-15.8%
COc1cc(NC(=O)C(=O)NNC(=O)C2CCCCC2)c(OC)cc1Cl	-15.7%
CCn1c(COc2ccccc2)nnc1SCC(=O)C(C)(C)C	-7.4%
COCCn1c(=O)c(-c2cccc(C#N)c2)nc2cnc(N3CCNCC3)nc21	?
COc1ccccc1OCC(=O)NN1Cc2ccccc2C1=N	-1.0%
Fc1ccc(-c2nnc(CSc3nnc(-c4ccc5c(c4)OCO5)o3)o2)cc1	-16.5%
CCCc1[nH]nc2c1C(c1ccc(OCCN3CCOCC3)c(OCC)c1)C(C#N)=C(N)O2 (stereo unspecified)	1.0%
COc1ccc(CCC(C)Nc2ccc(F)cc2)cc1 (stereo unspecified)	-12.6%
CN(C)c1ccc(C(=O)/C=C/c2ccc(Br)cc2)cc1	-6.7%
O=[N+]([O-])c1cc(/C=N/n2c(-c3cccnc3)n[nH]c2=S)ccc1Cl	3.98µM*
O=C(CCNC(=O)c1ccccc1Cl)Nc1nc(-c2ccccc2Cl)cs1	-13.2%
COc1ccc(C(=O)NNC2=NC(C)(C)Cc3ccccc32)cc1	-3.7%
Cc1ccc(S(N)(=O)=O)cc1NC(=O)/C=C/c1cccs1	-1.1%
CC(C)CC(C(=O)OCC(=O)c1c(N)n(C)c(=O)n(C)c1=O)N1C(=O)c2ccccc2C1=O (stereo unspecified)	-25.3%
Cc1n[nH]c(C)c1S(=O)(=O)N1CCCCCC1	3.8%
Cc1nn(-c2ccccc2)c2c1C(=O)N(Cc1ccccc1)C(=O)C(C)(C)C2	1.8%
O=C(CC(=O)c1ccccc1)Nc1cc(C(F)(F)F)ccc1Cl	-7.7%
CCNC(=O)C(C)Sc1ccc(Cl)cc1 (stereo unspecified)	-17.1%
CCN1CCN(CCCNC(=O)c2csc3c2CCCCC3)CC1	-6.5%
Cc1cccc(CCNC(=O)C2CCCN(S(=O)(=O)c3cccc4nsnc34)C2)c1 (stereo unspecified)	-19.7%
O=C(CCN1C(=O)S/C(=C\c2cccs2)C1=O)NC1=NCCS1	-16.6%
COC(=O)Cc1[nH]nc2c1C(C1C=CCCC1)C(C#N)=C(N)O2 (stereo unspecified)	-16.1%
CC(=O)NC1=NN(C(C)=O)C(C)(CS(=O)(=O)c2ccc3ccccc3c2)S1 (stereo unspecified)	-5.2%
COc1ccc(-c2cc([C@H](O)C3CCCCN3)c3ccccc3n2)cc1 (stereo partly specified)	?
COC(=O)CCN(C(=O)c1cc(OC)c(OC)c(OC)c1)c1ccccn1	-2.6%
O=C(CSc1nnc(-c2cccs2)n1-c1ccccc1)N1CCCc2ccccc21	-9.2%
CC1=C(C#N)C(NC(=O)C2CCCCC2)(C(F)(F)F)C(=O)N1 (stereo unspecified)	-5.8%
CCc1c(C)c(C#N)c2nc3ccccc3n2c1NCc1ccco1	-21.9%
CCn1c(=O)cc(SCC(=O)Nc2cc(OC)c(OC)c(OC)c2)c2ccccc21	-4.4%
O=C(NCCCn1ccnc1)c1cc(-c2ccc(Cl)cc2)nc2ccccc12	-15.6%
O=C1C2C3C=CC(C3)C2C(=O)N1c1cccc(-c2nc3ccccc3o2)c1 (stereo unspecified)	-29.7%
Cc1nn(Cc2ccccc2Cl)c(C)c1NC(=O)CCCn1nc([N+](=O)[O-])c(Cl)c1C	-10.4%
COC(=O)CCC(=O)Nc1cccc2c(NC(=O)CCC(=O)OC)cccc12	-9.6%
COc1ccc(-c2csc(N)n2)cc1	-13.2%
COc1cc(CNCc2cccs2)ccc1OCC(N)=O	-3.9%
Cc1cccc(-n2cnc3cc(C(=O)N4CCc5ccccc54)ccc32)c1	22.4µM*
CCOC(=O)C1=C(C)N=C2SC(C)C(=O)N2C1/C=C/c1ccccc1OC (stereo unspecified)	-23.7%
Cc1ccc(-n2c(C)nnc2SCC(=O)N2CCc3ccccc3C2)cc1	-8.0%
CCOc1ccc(N=Nc2c(=O)[nH]n3c(=O)c4c([nH]c23)CCCC4)cc1	?
Nc1cc(Cl)ccc1N1CCOCC1	-13.6%
CC(C)CC(=O)NC(=S)Nc1nc(-c2ccccc2)cs1	-8.7%
CCNNC(=O)C(O)(c1cccc(C)c1)c1cccc(C)c1	-9.1%

Further compounds:
SMILES	HPGD block
CCOc1cc(/C=N\NC(=O)c2ccc(NC(=O)C(C)(C)C)cc2)ccc1OC(=O)c1ccc(C)cc1	-2.6%
CCOC(=O)CC(NS(=O)(=O)c1ccc(OC)c(C)c1)c1cccc([N+](=O)[O-])c1 (stereo unspecified)	-3.6%
Cc1cc(C)n(S(=O)(=O)c2cc(C)c(C)cc2C)n1	-4.8%
C/C(=N\N=C1/NC(=O)C(C)S1)c1ccc([N+](=O)[O-])cc1 (stereo unspecified)	-25.8%
Cc1ccc(S(=O)(=O)N2CCCC2C(=O)NC2CCCCC2)cc1 (stereo unspecified)	-1.3%
CCOC(=O)N1CCN(C(=O)c2cc3cc(Br)ccc3oc2=O)CC1	-8.6%
C[C@@]12CCC=C[C@H]1[C@H](c1ccccc1Br)N(Cc1ccccc1)C2=O	-3.2%
Cc1ccccc1CNc1nc(N)n(-c2ccccc2)n1	-8.1%
COc1ccc2oc(-c3ccc(O)cc3)cc(=O)c2c1	?
COc1ccccc1-c1nnc(SCC(=O)NC2CCCCC2)o1	-17.7%
Cc1ccc(S(=O)(=O)N2CCc3ccccc3C2CN2C(=O)c3ccccc3C2=O)cc1 (stereo unspecified)	-12.6%
Cc1cccc(NC(=O)N(Cc2cc3cc(C)cc(C)c3[nH]c2=O)CC2COCCO2)c1 (stereo unspecified)	-7.1%
O=C(CSc1ncnc2c1cnn2-c1ccc(F)cc1)NCc1ccc2c(c1)OCO2	-14.6%
CCCCCN=Cc1c(C)[nH]n(-c2nc3ccccc3s2)c1=O	-11.0%
O=C(Nc1ccccc1)c1ccc(NCC2CCCO2)c([N+](=O)[O-])c1 (stereo unspecified)	-20.5%
CCC(C)/C(C)=N/NC(=O)c1ccc(CSc2nc3ccccc3s2)cc1 (stereo unspecified)	20µM*
CCOC(=O)CSc1nc(N)c(C#N)cc1C#N	?
Cc1ccc(C(C(=O)NC2CCCC2)N2CCc3ccccc32)cc1 (stereo unspecified)	-13.2%
O=C(CN1CCN(Cc2ccccc2Cl)CC1)N=Nc1c(O)[nH]c2ccccc12	-9.2%
Cc1nc2cc(NC(=O)NCc3ccco3)ccc2n1C	-4.3%
COc1ccc(Cl)cc1N(CC(=O)Nc1cccc(SC)c1)S(C)(=O)=O	-12.8%
C=CCn1c(=NC(=O)c2ccc(S(=O)(=O)N3CCCC3)cc2)sc2cc(NC(C)=O)ccc21	?
CC(=O)Oc1c2c(c3c(c1CC=C(C)C)O[C@@]14C(=CC5CC1C(C)(C)OC4(C/C=C(\C)C(=O)O)C5=O)C3=O)OC(C)(CCC=C(C)C)C=C2 (stereo partly specified)	-7.9%
Cn1c(=O)c2c(-c3ccccc3)n(Cc3ccccn3)cc2n(C)c1=O	-9.6%
O=C(CSc1nc(O)cc(=O)[nH]1)N1CCCc2ccccc21	17.8µM*
O=C(NCC1CCCO1)C(c1cccs1)N(Cc1ccccc1Cl)C(=O)c1ccc(-c2ccccc2)[nH]1 (stereo unspecified)	-20.6%
COc1ccccc1N(CC(=O)Nc1ccccc1C(=O)NCC(C)C)S(C)(=O)=O	-9.9%
CCCn1nnc(NC(=O)c2ccccc2Cl)n1	-16.7%
CCC(=O)Nc1ccc(NC(=O)CSc2nnnn2C(C)C)cc1	-4.2%
Cc1ccc(C2NC(c3ccc(C)cc3)C([N+](=O)[O-])C(C)(C)C2[N+](=O)[O-])cc1 (stereo unspecified)	-8.1%
O=C(O)CCC[C@H](O)\C=C/C=C/C=C/[C@H](O)C/C=C\CCCCCO	0.2%
CCOc1ccccc1OCC(=O)NC1CCCCC1	-14.5%
COc1ccc(-n2cc(-c3ccccc3)c3c(N4CCN(CCO)CC4)ncnc32)cc1	?
COc1cc(CCC(=O)OCn2nnc3ccccc3c2=O)cc(OC)c1OC	-23.6%
COc1cc(C2C(Oc3ccccc3C)C(=O)N2Cc2ccc(F)cc2)cc(OC)c1OC (stereo unspecified)	-12.7%
C=CCSc1n[nH]c(-c2ccc(OCCC)cc2)n1	?
CCOc1nc(-c2ccccc2)ccc1-c1noc(-c2ccco2)n1	?
O=C(c1ccccc1)N1CCN(C(=O)N2CCOCC2)CC1	-4.6%
O=C(N/N=C/c1cccc([N+](=O)[O-])c1)c1cc2c(ccc3ccccc32)o1	-28.1%
C=CCOc1ccc(/C=N/NC(=O)CN(c2cc(Cl)ccc2OC)S(=O)(=O)c2ccc(C)c([N+](=O)[O-])c2)cc1	?
CCNC(=O)Cn1c(=O)c2c(ncn2Cc2ccccc2)n(Cc2ccccc2)c1=O	-7.6%
CCOc1ncccc1C(=O)Nc1ccc(-c2cn3ccsc3n2)cc1	?
O=C(CCCOc1ccccc1)n1nnc2ccccc21	-8.3%
C#CC(CC)(CC)NC(=O)c1c(C)noc1C	-4.4%
CCN1CCN(C(=O)CS(=O)(=O)Cc2nc(-c3ccc(C)cc3)oc2C)CC1	-0.1%
CCCCn1nnnc1SCC(=O)Nc1ccc(N(C)C)cc1	-7.9%
CCCCOC(=O)Nc1ccc(C(=O)OCCC)cc1	-22.9%
C[C@@]1(C(NS(=O)(=O)c2cccc3cccnc23)c2ccc(-c3ccccc3)cc2)C[C@H]1C1CCCCC1 (stereo partly specified)	-6.1%
CCN(CC)S(=O)(=O)c1cc(OC)c(Cl)cc1Cl	-13.7%
CCOC(=O)CN1C(=O)Nc2ccc(Br)cc2C1c1ccccc1 (stereo unspecified)	-7.3%
COc1ccc(C(=O)N2CC3(C)CC2CC(C)(C)C3)cc1 (stereo unspecified)	0.3%
Cc1ccc(NC(=O)CSc2nnc(NC(=O)CN3CCOCC3)s2)cc1	-17.1%
CCOC(=O)c1cc2cc3ccccc3cc2[nH]1	?
Cc1noc(C)c1C(=O)N1CCC2(CC1)CCN(c1ncccn1)CC2	-29.6%
Cn1c(NCc2ccccc2O)nc2ccccc21	-17.2%
O=C1CC(O)(C(F)(F)F)Oc2c1ccc1ccccc21 (stereo unspecified)	?
COc1ccc(N2C(=O)C(CC(=O)Nc3ccccc3)N(Cc3ccc4c(c3)OCO4)C2=O)cc1 (stereo unspecified)	-12.2%
CCOC(=O)/C(C#N)=C\c1ccc(CC)s1	-29.4%
Cc1ccnc(NC(c2ccncc2)c2c(C)[nH]c3ccccc23)c1 (stereo unspecified)	-9.2%
O=C(c1cc(C2CC2)nc2ccccc12)N1N=C(C(F)F)CC1(O)C(F)F (stereo unspecified)	-26.8%
O=S(=O)(c1ccc(Br)cc1)N1CCN(c2ccc3nnc(-c4ccccc4)n3n2)CC1	?
